Screening results (PubChem BioAssay)
CSC inhib = cancer stem cell viability inhibitors, primary screen, luminescence | cancer stem cell-like cells viability | inhibition, % at 7.5 µM | 1.1% of 300,000 active;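 active = mean at 75% or more and at least half the replicates too; inconclusive = mean and replicates disagree; tested in HMLE shEcad cells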;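 also: 0% = median of negative and 100% = median of positive control wells; the first replicate is given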
UUG fidelity = modulators of yeast start codon fidelity, primary screen, whole organism, S. cerevisiae, single point, plate reader; S. cerevisiae UUG-firefly luciferase reporter, luminescence/redox ratio; activity score, % at 18.7 µM; 0.13% of 350,000 active;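 active = replicate mean at a twofold rise or more, about +100% in these data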;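 also: firefly luciferase made from a UUG start codon reports start codon fidelity; reporter light over untreated wells divided by growth signal over untreated wells; some hits fall short of that in this replicate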
Rce1 inh = yeast Rce1p protease inhibitors, primary screen, biochemical, fluorescence, cell-free homogeneous; CAAX prenyl protease 2 (Saccharomyces cerevisiae (strain ATCC 204508 / S288c)), Q03530; yeast membranes, quenched prenylated peptide cleavage fluorescence; calls only; 0.27% of 290,000 active; AID 2563, 2010;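 active = fall in fluorescence gain of 50% or more versus controls, with final raw signal at or below 3038400; inconclusive = same 50% fall but final raw signal above 3038400; inactive = fall in fluorescence gain under 50%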;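 also: plate controls were neutral control wells for no effect and wells lacking membranes for full effect; tested at 10 µM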
Target sequence (Q03530 whole entry, looked up): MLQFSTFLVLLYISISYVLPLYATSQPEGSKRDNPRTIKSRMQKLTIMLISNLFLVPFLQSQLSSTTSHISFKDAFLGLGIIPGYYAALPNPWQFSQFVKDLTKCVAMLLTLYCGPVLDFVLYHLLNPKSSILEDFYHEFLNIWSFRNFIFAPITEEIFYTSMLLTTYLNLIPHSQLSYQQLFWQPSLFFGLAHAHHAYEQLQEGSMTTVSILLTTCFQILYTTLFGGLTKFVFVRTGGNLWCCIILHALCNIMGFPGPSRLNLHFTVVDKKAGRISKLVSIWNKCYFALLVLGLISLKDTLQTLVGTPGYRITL
eIF4H FP inh = human eIF4H binding inhibitors, primary screen, translation initiation inhibitor project, biochemical, uHTS, fluorescence polarization; Eukaryotic translation initiation factor 4H (Homo sapiens), Q15056; eIF4H fluorescence polarization binding assay; inhibition, % at 35 µM; 0.94% of 290,000 active;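 active = 50% or more with normal probe brightness, or confirmed in later tests; inconclusive = above 50% with abnormal brightness, or retests that disagree; inactive = below 50% or failed in later tests; about a fifth of its hits are not listed in these tables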;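 also: calls also rest on retests at 20 µM and on dose response follow-up; 0% = protein and probe with vehicle and 100% = probe without protein; strong numbers were not always called active; many hits fall short of the cut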
MT1-MMP act inh = blockers of MT1-MMP proenzyme processing, primary screen, HT1080 RFP-PRO-GFP cells, GFP/RFP fluorescence | Matrix metalloproteinase-14 (Homo sapiens), P50281 | GFP/RFP ratio change, % at 20 µM | 0.061% of 360,000 active | GFP/RFP ratio fluorescence, overnight; percent of plate control window, DMSO zero;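 active = GFP/RFP ratio change of at least 30% with cell ATP level not reduced by more than half and red fluorescence within 50% of control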; also: strong numbers were not always called active
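Material: RFP-PRO-GFP reporter HT1080 cells. Dosing: single-point 20 µM compound, 1% DMSO. Controls: DMSO and RFP-L50D-GFP cell wells. Timing: cells overnight before dosing, compound overnight, 37 °C, 5% CO2. Measure: GFP/RFP fluorescence ratio.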
PABP FP inh = PABP poly(A) RNA binding inhibitors, primary screen, biochemical, fluorescence polarization, uHTS; Polyadenylate-binding protein 1 (Homo sapiens), P11940; inhibition, % at 35 µM; 1% of 290,000 active;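 active = 50% or more with normal probe brightness, or confirmed in later tests; inconclusive = above 50% with abnormal brightness, or retests that disagree; inactive = below 50% or failed in later tests; about a fifth of its hits are not listed in these tables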;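 also: calls also rest on retests at 20 µM and on dose response follow-up; controls were probe without protein and protein plus probe with vehicle; some compounds called inactive have numbers as strong as hits; many hits fall short of the cut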
HIV Env fusion = inhibitors of HIV-1 Env-driven cell-cell fusion, primary screen, HeLa-JRFL effector, CEM21 target cells, luciferase | inhibition, % at 12.3 µM | 1.1% of 360,000 active | AID 651610, 2012;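 active = mean replicate inhibition score of at least 50 and every replicate individually at or above 50; inconclusive = only one of the two criteria met; inactive = mean below 50 and not all replicates reaching 50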;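 also: 0% = plate neutral controls and 100% = maraviroc near 300 nM; one replicate is shown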
eIF4H FP inh retest = also measured in eIF4H FP inh; calls as there; inhibition, %; compound at 20 µM; confirmation average;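 mean of two retest wells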
PABP FP inh retest = further read-out of PABP FP inh, marked with its call; inhibition, %; compound at 20 µM; confirmation repeats;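 mean of two retest wells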
MT1-MMP act inh RFP = further read-out of MT1-MMP act inh, marked with its call; RFP signal change, %; measured here: RFP expression control read;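 0 = vehicle wells; hits needed this value within 50% of zero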
The depositor's hits bear a star; i = inactive; ? = inconclusive; / = not tested or not shown; & = joins results of further samples.

SMILES	CSC inhib	UUG fidelity	Rce1 inh	eIF4H FP inh	MT1-MMP act inh	MT1-MMP act inh RFP	PABP FP inh	HIV Env fusion	others
C/C(=N\NC(=O)c1c(Cl)cnn1C)c1ccc(NC(=O)c2ccncc2)cc1	1	/	i	-3	-3	-4	-1	/
O=C(c1ccc(S(=O)(=O)N2CCC(c3nc4ccccc4[nH]3)CC2)cc1)N1CCOCC1	-22	94	i	9	-4	0	7	-19
Nc1nc(SCc2c(Cl)cccc2Cl)n[nH]1	13	-5	i	1	-2	-3	-2	-8
O=C(CN1C(=O)S/C(=C\c2cccs2)C1=O)Nc1ccc(O)cc1C(=O)O	-3	-13	i	4	-5	1	23	-3
COc1ccccc1N1CCN(C(=O)C(=O)c2cn(CC(=O)N3CCCC3)c3ccccc23)CC1	-3	10	i	-5	-1	0	-6	0
CCN(CC(=O)Nc1c(F)cccc1F)C(=O)c1cc([N+](=O)[O-])ccc1N1CCCCC1	-1	-7	i	/	-5	-8	/	11
CCC(C)NC(=O)C1c2ccccc2C(=O)N1Cc1ccc(F)cc1 (centres undefined)	-7	-19	i	-6	0	1	-12	-6
CCc1nnc(NC(=O)C2=CCN(S(=O)(=O)c3ccc(F)cc3)CC2)s1	0	/	i	2	-3	-3	1	1
COc1cc(C(CC(=O)Nc2ccccn2)N2Cc3ccccc3C2=O)cc(OC)c1OC (centres undefined)	-21	-11	i	8	-2	1	12	9
CCOC(=O)CN1CC23C=CC(O2)C(C(=O)NCc2ccccc2OC)C3C1=O (centres undefined)	1	-2	i	-2	-2	-3	-12	-7
O=C1C(=Cc2cn(-c3ccccc3)nc2-c2ccc(OCc3ccccc3)cc2)SC(=S)N1CCS(=O)(=O)O	/	-10	/	/	-1	1	/	-12
Cn1nnc2cc(NC(=O)Nc3ccccc3F)ccc21	/	-28	/	/	4	-1	/	-53
COc1ccc2nc(SCc3cnc(C)nc3N)[nH]c2c1	/	-26	i	0	0	6	-14	/
Cc1nc(C(C)NC(=O)c2ccc(OC3CCN(Cc4ccccn4)CC3)cc2)c(C)s1 (centres undefined)	0	-8	i	/	-1	6	/	-6
O=C(CN1C(=O)C2C3C=CC(C3)C2C1=O)Nc1nc(-c2ccccn2)cs1 (centres undefined)	13	/	i	18	2	-1	6	/
Cc1ccc(NC(=S)NCc2ccccc2)cc1[N+](=O)[O-]	-4	/	i	3	5	0	-1	5
C[C@@H]1CN([C@H](C)CO)C(=O)c2cc(Br)cnc2O[C@H]1CN(C)C(=O)Cc1ccncc1	/	-5&-9	/	/	0	4	/	-4
Cc1ccc(NC(=S)N2CCCCC2CO)cc1C (centres undefined)	12	/	i	-4	1	2	0	1
Cc1ccc(Cn2cc(/C=C/C(=O)O)c(-c3ccccc3)n2)cc1	3	/	i	-2	-8	-2	0	/
CC(C)NS(=O)(=O)c1ccc(OCC(=O)N2CCc3ccccc3C2)cc1	4	/	i	2	1	3	-8	18
O=C(Nc1nc2ccc(SC(F)F)cc2s1)c1ccc(NS(=O)(=O)c2ccc(F)c(F)c2)cc1	79*	-19	i	-2	-4	-22	-3	/
O=C1c2ccccc2C(=O)N1OCc1cccc(Cl)c1	-9	-2	i	7	13	3	4	/
CCN(CC)S(=O)(=O)c1ccc(-c2csc(C)n2)cc1	-6	/	i	7	3	1	1	-11
Nc1ncnc2c1ncn2[C@@H]1O[C@H](CO)C[C@@H]1O	4	/	i	-7	/	/	1	/
CN1CCN(C(=S)NC(=O)c2cccc(S(=O)(=O)N(C)C)c2)CC1	-16	-11	i	1	2	3	18	10
COc1cc2c(cc1NC(=O)CN1CCN(S(=O)(=O)c3ccc(C)cc3)CC1)oc1ccccc12	-5	-12	i	0	-14	-2	1	/
Nc1ccc(NC(=O)c2ccc(C(=O)Nc3ccc(N)cc3)cc2)cc1	-5	-1	i	30	5	9	-41	6
CC(O)Cc1nsc(NC(=O)c2cccs2)n1 (centres undefined)	-5	-32	i	1	-3	1	-6	-18
O=C(NC1CC1)c1cc2ccccc2o1	-2	2	i	-5	1	2	1	11
O=C(Nc1cnn(Cc2c(Cl)cccc2Cl)c1)c1ccc([N+](=O)[O-])cc1	33	-13	i	8	10	-1	2	-7
CCOc1ccc(C(=O)NCC(=O)NNC(=O)c2cc(C)oc2C)cc1OCC	-19	-8	/	/	1	2	/	-14
Cc1cccc(CC(=O)NCCS(=O)(=O)N2CCN(c3cccc(Cl)c3)CC2)c1	-9	9	i	/	4	-2	/	-415
CCc1cc(C(=O)N2CCN(C(=O)c3ccco3)CC2)sc1C	-9	11	i	/	4	1	/	-8
O=C(NCCc1ccccc1)c1ccco1	-6	-9	i	-1	4	0	-6	/
CC(=O)Nc1ccc(NC(=O)C(C)OC(=O)C2CCC2)cc1 (centres undefined)	3	-9	i	/	1	3	/	11
CCCCCC(=O)NNC(=O)c1c(O)c2ccccc2n(CC)c1=O	2	/	i	11	2	-10	2	8
CCCCOc1ccccc1C1C(C(N)=O)=C(C)Nc2nnnn21 (centres undefined)	/	-14	i	-2	2	3	-11	-23
CC(C)(C)OC(=O)C[C@@H]1C/C=C\C[C@H](CC(=O)N[C@H](CO)Cc2ccccc2)C(=O)N2CCC[C@H]2COC1=O	/	21	/	/	3	4	/	3
CCOc1cc(/C=C2/C(=O)ON=C2C)ccc1OCc1ccccc1F	-31	-14	i	-5	3	-1	-1	/
Cc1cccc(NC(=O)c2ccc([N+](=O)[O-])o2)c1	?	-14	i	-11	13	-1	-9	-14
Fc1ccc(CSc2ncnc3c2oc2ccccc23)cc1	6	/	/	-1	1	0	20	-10
COc1ccc(C)cc1NC(=O)CCS(=O)(=O)c1cccc2nonc12	-5	-11	i	2	-2	-1	-6	-28
Cc1cc(C)c2sc(N(CCCN(C)C)C(=O)c3ccc(S(=O)(=O)N(C)C4CCCCC4)cc3)nc2c1	-3	27	i	/	-1	-1	/	-12
Cc1nnc2n(-c3ccccc3)c(=O)c3c4c(sc3n12)CCCC4	-12	-5	/	-13	-1	1	3	4
CCCCNC(=O)N(C)c1nncnc1C(=O)NC	-15	-17	i	4	0	2	4	-41
Cc1ccc(C)c(S(=O)(=O)N2CCCOC2CNC(=O)C(=O)NCc2ccc3c(c2)OCO3)c1 (centres undefined)	6	-16	i	7	-6	-4	9	-19
O=C(O)CC/C(=N/NC(=O)CNC(=O)C(c1ccccc1)c1ccccc1)c1ccccc1	-15	-10	i	5	0	4	0	-4
COc1cccc2cc(C(C)N(CCCN3CCOCC3)C(=S)Nc3cccc(C)c3)oc12 (centres undefined)	3	-16	i	-3	3	2	1	5
CC(C)(C)OC(=O)C[C@H]1C/C=C\C[C@@H](CC(=O)N(CCO)Cc2ccccc2)C(=O)N[C@H](Cc2c[nH]c3ccccc23)COC1=O	-25	20	/	/	1	-2	/	5
CC1(Oc2cccc(F)c2)CCN(Cc2ccc(-c3ccccn3)cc2)C1 (centres undefined)	/	-6	/	/	1	1	/	43
Clc1ccc(NC2(c3nnnn3C3CCCCC3)CCCCC2)cc1	1	-19	i	-9	-5	-9	-2	?
O=C(Nc1ccn(Cc2ccccc2F)n1)c1ccc(COc2ccc(Br)cc2)cc1	53	/	i	4	-1	-21	-5	87*
CC(C)OCCCNC(=S)NNC(=O)C(c1ccccc1)c1ccccc1	-8	-23	i	9	0	0	-8	15
Nn1c(SCC(=O)NC2CCCCC2)nnc1-c1ccccc1F	-17	-16	/	/	0	-1	/	10
O=C1c2nc3cc(-c4ccco4)[nH]n3c(=O)c2CN1C1CCCCC1	17	-3	i	50*	-3	1	65*	-28
CCCCC(=O)NC1(C(F)(F)F)C(=O)Nc2c1c(=O)n(C)c(=O)n2C (centres undefined)	2	-9	i	-4	2	2	10	/
NC(N)=NC1=NC(=O)/C(=C/c2ccccc2-n2cccn2)S1	-17	-13	i	1	2	-1	0	-1
O=C(NCCN1CCOCC1)c1cn(-c2ccccc2)nc1-c1cccs1	-5	-13	i	-2	-3	0	3	-67
CN(C)CCOc1ccc2c(c1)Sc1ccccc1CC2=O	-10	-7	i	-8	-9	-1	2	/
Cc1[nH]c2ccccc2c1C(=O)CN1CCCC(C)C1 (centres undefined)	-4	-17	i	-6	-3	0	8	3

(continued)
SMILES	CSC inhib	UUG fidelity	Rce1 inh	eIF4H FP inh	MT1-MMP act inh	MT1-MMP act inh RFP	PABP FP inh	HIV Env fusion	others
C=CCNC(=O)Nc1ccc(Cl)cn1	-7	/	i	-4	-3	3	-2	-7
O=C(COc1cccc2c1CCN(Cc1ccc(Cl)cc1)C2=O)N1CCOCC1	1	/	i	1	0	-12	4	25
COc1cccc(NC(=O)OCCN2CCN(Cc3ccccc3)CCC2=O)c1	5	-9	i	5	1	-3	12	-4
CCCc1cc(=O)[nH]c(SCC(=O)c2c(N)n(CC(C)C)c(=O)n(C)c2=O)n1	84*	2	i	/	-11	0	/	-3
Cc1ccc(OCC(=O)N2CCc3ccccc3C2)cc1C	/	-2	/	/	-2	4	/	1
Cc1ccc(NC(=O)Cn2nnc(C(=O)NCc3cccs3)c2N)cc1	3	-8	i	-6	4	-3	0	38
Cc1ccc2cc(C)c(N3CCN(c4ccc(F)cc4)CC3)nc2c1	14	-13	i	0	-3	-4	-13	-8
Cc1c(C(=O)OCCOc2ccc(Br)cc2)sc(=S)n1C	8	/	i	4	2	5	6	-2
COc1ccc2c(c1)OC[C@H]1[C@@H]2N2C(=O)[C@@H](C)NC(=O)[C@@]2(C)[C@H]1c1ccccc1	-11	-16	/	/	-3	5	/	-45
CC(C)CCNC(=O)c1onc(CSc2ccc(F)c(F)c2)c1C(=O)NCCC(C)C	7	-12	i	-9	-8	-7	-5	26
Cc1ccc([N+](=O)[O-])cc1S(=O)(=O)Nc1ccc(OCC(=O)N2CCOCC2)cc1	5	-8	i	85	1	6	48	11	eIF4H FP inh retest=8;PABP FP inh retest=16
CC(C)CCNC(=O)CN(C(=O)CCC(=O)Nc1ccccn1)c1ccc2c(c1)OCO2	2	89	i	0	-3	2	1	/
CC1CCCN(C(=O)C2CCN(S(=O)(=O)c3ccccc3)CC2)C1 (centres undefined)	-2	-16	/	/	-1	0	/	-7
CS(=O)(=O)Nc1ccc(C(=O)CSc2nnc(C3CC3)n2C2CC2)cc1	/	-9	/	/	3	5	/	2
O=C(O)c1cc(NC(=O)c2ccc3c(c2)C(=O)N(Cc2cccnc2)C3=O)cc(C(=O)O)c1	-7	-15	i	-7	-1	1	18	8
COc1ccc(CNC(=O)CN(C(=O)c2csnn2)c2cccc(C(C)=O)c2)cc1	-6	1	/	-4	-1	1	-1	-6
O=C1Nc2ncccc2OC1CCO (centres undefined)	0	-13	i	1	0	3	6	-70
